GALR2 ag = GALR2 receptor agonists, primary screen, cell-based. activation, %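 (tested at 5 µM)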. GALR2-expressing cells, agonist activation read-out. Galanin receptor type 2 (Homo sapiens), O43603. actives 0.48% (n = 140,000);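 active means above mean plus 3 SD of all compounds, about 5% in these data, not always enough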;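 further: 0% = vehicle buffer wells and 100% = reference agonist at full effect; tested in CHO reporter cells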
Target sequence (O43603 whole entry, looked up): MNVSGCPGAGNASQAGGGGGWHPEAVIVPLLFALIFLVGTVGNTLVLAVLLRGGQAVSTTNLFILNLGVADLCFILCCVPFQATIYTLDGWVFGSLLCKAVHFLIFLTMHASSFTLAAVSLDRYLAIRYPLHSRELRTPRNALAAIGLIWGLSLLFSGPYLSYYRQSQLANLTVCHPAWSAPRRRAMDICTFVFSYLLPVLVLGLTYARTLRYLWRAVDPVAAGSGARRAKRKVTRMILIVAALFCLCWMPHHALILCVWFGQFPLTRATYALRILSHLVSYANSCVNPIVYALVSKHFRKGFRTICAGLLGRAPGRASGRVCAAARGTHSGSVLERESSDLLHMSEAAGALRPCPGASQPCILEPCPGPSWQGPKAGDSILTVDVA
RGS16-Gao = modulators of RGS16 binding to Galphao, primary screen, biochemical, human proteins, multiplexed bead flow cytometry. bead-based flow cytometry RGS16-Galphao binding, fluorescence; actives lie on both sides. binding response (% of control), % at 10 µM. actives 0.38% (n = 220,000);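 active means below 25% or above 175%, edge rows of some plates excepted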;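 further: Galphao activated by GDP with aluminum fluoride before binding; 100% = wells without compound and 0% = beads without RGS; some results beyond the cut were filed as inactive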
Target sequence (O15492 whole entry, looked up): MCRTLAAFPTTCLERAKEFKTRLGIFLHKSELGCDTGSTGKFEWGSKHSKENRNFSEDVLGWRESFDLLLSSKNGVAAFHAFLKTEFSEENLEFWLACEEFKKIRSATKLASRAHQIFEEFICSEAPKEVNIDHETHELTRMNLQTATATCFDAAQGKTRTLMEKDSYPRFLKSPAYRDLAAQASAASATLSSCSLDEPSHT
Target sequence (P09471 whole entry, looked up): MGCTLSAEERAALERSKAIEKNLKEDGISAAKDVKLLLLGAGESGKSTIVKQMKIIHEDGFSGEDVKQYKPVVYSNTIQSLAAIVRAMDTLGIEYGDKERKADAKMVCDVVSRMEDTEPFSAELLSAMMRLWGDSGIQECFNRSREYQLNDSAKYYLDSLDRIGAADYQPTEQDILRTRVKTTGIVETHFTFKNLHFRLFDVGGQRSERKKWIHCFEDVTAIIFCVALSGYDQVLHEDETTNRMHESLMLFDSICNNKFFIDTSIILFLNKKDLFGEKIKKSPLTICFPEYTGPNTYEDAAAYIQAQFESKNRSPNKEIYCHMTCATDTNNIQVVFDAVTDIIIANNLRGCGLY
HSV augment = enhancers of HSV replication in host cells, fold increase, host cell viability; AID 1956, 2009; maximum fold increase; HSV replication augmentation in cells; actives 0.005% (n = 220,000);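 active means peak rise of 1.5-fold or more in the series; inconclusive means self-fluorescent or not available for retest; tested in PC3 cells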;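 further: first round at 10 µM; read as green reporter fluorescence; hits show the peak of a series up to 25 µM; 1 = signal of infected wells without compound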
Insulin prom inh = inhibitors of insulin promoter-driven GFP, primary screen, imaging, TRM-6 cells (human fetal islet line), eGFP reporter, cell count | reporter expression induced with tamoxifen | inhibition, % at 2 µM | actives 0.9% (n = 130,000);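 active means inhibition above the mean plus 3 SD, with well images judged a real hit on visual review, cut at about 60% in these data, passing the limit was not always enough; inconclusive means inhibition over the cutoff but images rejected on review; inactive means inhibition not above the cutoff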
PKD1 inh = inhibitors of human PKD1 kinase, biochemical, fluorescence polarization. PKD1 kinase fluorescence polarization assay. inhibition, %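 (about 10 µM by stock and volumes)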. actives 0.056% (n = 200,000). AID 797, 2007;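 active means inhibition of 50% or more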;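 further: controls were vehicle for no effect and a reference inhibitor for full effect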
Insulin prom inh cell count = also measured in Insulin prom inh; calls as there; normalized cell count, %; measured here: cell count, toxicity; reference of the scale not given here;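 cells exposed to compound for 48 h; stained nuclei by imaging scaled within each plate; lower means fewer cells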
HSV augment primary fold = also measured in HSV augment; calls as there; fold increase; compound at 10 µM; measured here: primary screen fold increase 10 uM; tested in PC3 cells;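 GFP signal in the first replicate; 1 = infected wells without compound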
The depositor's hits bear a star; i = inactive; ? = inconclusive; · = no result given.

SMILES	GALR2 ag	RGS16-Gao	HSV augment	HSV augment primary fold	Insulin prom inh	Insulin prom inh cell count	PKD1 inh
O=C(Nc1ccccc1)c1ccc(NCc2ccco2)c(S(=O)(=O)N2CCOCC2)c1	-1.7	101	i	0.91	7	81	-9
Cc1cc(C)cc(OCC(=O)NN2C(=O)c3ccccc3C2=O)c1	-1.2	101	i	1.1	24	172	3
Cc1ccc(CNC(=O)CSc2nc3ccsc3c(=O)n2Cc2ccc(C(=O)O)cc2)cc1	·	112	i	1.1	-3	84	4
O=C(NCc1ccccc1)/C(NC(=O)c1ccccc1)=C(/Sc1ccccn1)c1ccccc1	-0.8	58	i	0.88	-72	138	5
COc1ccc(Cn2c(=O)cc(C)[nH]c2=S)cc1	·	97	i	0.95	·	·	5
CCOc1ccccc1-c1c2cc(O)c(=O)cc-2oc2cc(O)c(O)cc12	-1.0	47	·	·	·	·	-4
CN(CCC#N)C(=O)COC(=O)c1ccc(Cl)cc1O	·	99	i	1.1	11	80	-2
O=C(O)CSc1ncnc2scc(-c3ccccc3)c12	·	105	i	1.1	·	·	·
O=C(O)c1ccccc1/C=N/Nc1ccc(S(=O)(=O)N2CCCC2)cc1[N+](=O)[O-]	·	99	i	1.1	·	·	·
Cc1cccc(NC2=C(Cl)C(=O)OC2OC(=O)c2ccco2)c1 (stereo not given)	·	100	i	0.9	·	·	-3
Cc1ccccc1NC(=O)/C(=C/c1ccco1)c1ccccc1	-1.7	78	i	0.89	-26	114	-2
O=C(NC(=O)N1CCSCC1)c1c(Cl)cccc1Cl	·	106	i	1	·	·	·
O=C(Nc1cc(C(F)(F)F)ccc1N1CCCCC1)c1cccc([N+](=O)[O-])c1	-1.8	103	i	0.65	38	102	1
Cc1cccc(OCC(=O)Nc2ccccc2F)c1	·	76	i	1.1	0	87	-1
O=C(c1cccs1)N1CCC(c2nc(-c3ccc(S(=O)(=O)N4CCOCC4)cc3)no2)CC1	-2.3	97	i	1	-7	69	-6
CSCCC(=O)N1CCCC(CNC(=O)c2ccc(-c3ccccc3)cc2)C1 (stereo not given)	·	108	i	0.97	-57	179	-5
CCOc1cc(NC(=S)NCC2CCCO2)c(OCC)cc1NC(=O)CC(C)C (stereo not given)	·	100	i	0.92	·	·	3
O=C(Cc1ccc(Cl)cc1)NCc1nc(-c2ccccc2)no1	·	100	i	1.1	42	73	1
CC12CCC(C(=O)Nc3nc4ccccc4s3)(OC1=O)C2(C)C (stereo not given)	·	104	i	0.98	35	146	-6
CCC(C)NCC(=O)Nc1ccc([N+](=O)[O-])cc1C(=O)Nc1ccccc1F (stereo not given)	·	97	i	1.1	·	·	-11
COCC(C)n1c(C)cc(C(=O)CSc2ccc(NC(C)=O)cc2)c1C (stereo not given)	-1.9	108	i	0.88	51	93	-8
COC(=O)c1c(NC(C)=O)sc(C(=O)Nc2ccccc2C)c1C	·	114	i	0.91	·	·	-7
O=C(c1ccc(Oc2ccc([N+](=O)[O-])cc2Cl)cc1)N1CCCC1	·	101	i	0.98	·	·	-7
CCCC1CC(c2csc(N)n2)CCO1 (stereo not given)	0.2	104	i	0.9	·	·	4
CCOc1ccc(NC(=O)CCN2CCN(S(=O)(=O)c3cc(Cl)ccc3OC)CC2)cc1	0.5	101	i	0.96	38	120	4
O=C(CCCCCCN1C(=O)c2ccccc2C1=O)Nc1nccs1	-2.1	87	i	0.58	-31	87	1
Cn1c(/N=C/c2ccc3c(c2)OCO3)nc2ccccc21	-1.8	100	i	0.86	·	·	4
CCOc1ccc(N=C2NC(=O)S/C2=C\c2ccc(OC)cc2)cc1	-0.7	83	i	0.77	3	80	-5
CN(C)C(=O)c1cn(-c2ccccc2)nc1-c1cccs1	-2.4	102	i	1	0	57	2
O=C(Cc1n[nH]c(=O)c2ccccc12)OCC(=O)N(Cc1ccccc1)Cc1ccccc1	·	94	i	1.1	·	·	·

Given with bars between the fields: entries from further up.
smiles | GALR2 ag | RGS16-Gao | HSV augment | HSV augment primary fold | Insulin prom inh | Insulin prom inh cell count | PKD1 inh
CCOc1ccc(NC(=O)CCN2CCN(S(=O)(=O)c3cc(Cl)ccc3OC)CC2)cc1 | 0.5 | 101 | i | 0.96 | 38 | 120 | 4
O=C(CCCCCCN1C(=O)c2ccccc2C1=O)Nc1nccs1 | -2.1 | 87 | i | 0.58 | -31 | 87 | 1
Cn1c(/N=C/c2ccc3c(c2)OCO3)nc2ccccc21 | -1.8 | 100 | i | 0.86 | · | · | 4
CCOc1ccc(N=C2NC(=O)S/C2=C\c2ccc(OC)cc2)cc1 | -0.7 | 83 | i | 0.77 | 3 | 80 | -5
CN(C)C(=O)c1cn(-c2ccccc2)nc1-c1cccs1 | -2.4 | 102 | i | 1 | 0 | 57 | 2
O=C(Cc1n[nH]c(=O)c2ccccc12)OCC(=O)N(Cc1ccccc1)Cc1ccccc1 | · | 94 | i | 1.1 | · | · | ·

Continued:
SMILES	GALR2 ag	RGS16-Gao	HSV augment	HSV augment primary fold	Insulin prom inh	Insulin prom inh cell count	PKD1 inh
CC1CN(c2oc(Cc3cccc4ccccc34)nc2C#N)CC(C)O1 (stereo not given)	-1.4	102	i	0.97	-62	79	9
Cc1cc(C)c(C#N)c(SCC(=O)Nc2ccc(S(=O)(=O)Nc3onc(C)c3C)cc2)n1	-1.0	111	i	0.95	·	·	-7
O=C(c1cccs1)N1CCCc2ccccc21	-1.9	101	i	0.98	4	75	-4
Cc1c(C)c2ccc(OCC(=O)N3CCOCC3)c(C)c2oc1=O	·	98	i	0.88	-15	62	-2
Cc1ccc(NC(=O)COc2ccccc2C(=O)NCCN(C)C)cc1	·	177	·	·	14	76	3
CCN(CC(=O)Nc1ccccc1OC)CC(=O)Nc1ccccc1-c1ccccc1	·	100	i	0.73	·	·	-3
CC1=Nn2c(nc(-c3ccccc3)c2-c2ccccc2)NC(=O)C1Br (stereo not given)	-1.5	95	i	1.2	12	79	7
O=c1c2ccccc2nc(SCc2cn3ccsc3n2)n1-c1ccc(F)cc1	0.8	101	i	0.84	-54	125	-1
O=C(Oc1ccc2ccccc2c1)c1cncc(Br)c1	-2.7	109	i	0.8	-61	60	-4
CCc1cccc(C)c1NC(=O)c1ccoc1C	-1.3	78	i	1	-18	84	6
COc1ccc(S(=O)(=O)N(Cc2ccccc2)c2ccccc2C(=O)Nc2ccccc2C(=O)NCc2ccco2)cc1	-1.1	103	i	0.97	-32	115	-8
O=C(O)c1ccc2c(c1)C(=O)N(N1C(=O)c3ccccc3C1=O)C2=O	-0.6	116	i	0.98	13	130	-8
O=C1CCC(C(=O)N2CCC(CO)(Cc3ccc(Cl)cc3)CC2)=NN1	·	78	i	0.98	8	82	-1
CS(=O)(=O)N(CCC#N)Cc1ccc(/C=C2\C(=O)Nc3ccccc32)o1	·	99	i	0.98	17	115	10
CC1Cc2nc(SCC(=O)N3CCN(c4ccccc4)CC3)n(CCc3ccccc3)c(=O)c2S1 (stereo not given)	0.2	98	i	0.98	·	·	4
Cc1cc(NC(c2cccnc2)c2c(C)[nH]c3ccccc23)no1 (stereo not given)	-2.3	90	i	1.1	·	·	-7
CCOC(=O)C1=C(C)NC2=C(C(=O)CCC2)C1c1ccsc1 (stereo not given)	4.8	81	i	0.95	3	98	-4
Cc1nnc(N/N=C/c2ccc(-c3ccc(Br)cc3)o2)n1N	·	97	i	0.75	·	·	-1
O=c1[nH][nH]c(C(F)(F)F)c1C=Nc1ccccc1	-0.7	100	i	0.91	-17	70	-13
CN1C(=O)/C(=C/c2ccc(-c3ccccc3[N+](=O)[O-])o2)SC1=Nc1ccc(Cl)c(C(=O)O)c1	0.0	11	?	·	·	·	-9
COc1ccc(NC(=O)Cc2ccccc2)cn1	·	101	i	1	33	102	1
C/C(CC(=O)Nc1cccnc1)=N\NC(=O)C(C)Oc1ccc(Cl)cc1Cl (stereo not given)	·	102	i	0.65	·	·	·
COc1ccc(CN(C)CC(=O)Nc2sc3c(c2C#N)CCC3)cc1OC	·	107	i	0.98	55	128	1
COc1ccc(N2CCN(CC(=O)Nc3cc(C)on3)CC2)cc1	-1.6	98	i	0.86	·	·	11
Cc1ccc(C)c(SCc2nc3sc(C(=O)O)c(C)c3c(=O)[nH]2)c1	·	98	i	0.97	·	·	·
N#Cc1c(SCC(N)=O)nc2c(c1-c1ccncc1)CCCC2	·	104	i	1.1	·	·	-3
O=C(NNS(=O)(=O)c1ccc(F)cc1F)c1csc(-c2cccnc2)n1	·	107	i	1	·	·	·
CC(NC(=O)Cc1ccccc1)C1COc2ccccc2O1 (stereo not given)	·	107	i	0.93	6	106	-6
Cc1cc(C(=O)CSc2nc3ccccc3c(=O)[nH]2)c(C)n1CC1CCCO1 (stereo not given)	·	96	i	1.1	·	·	-2
CCN1CCCC1CNC(=O)C(=O)Nc1cccc(OC)c1 (stereo not given)	-1.9	79	i	1	27	107	-10

Look-ups from the list.
Entry for O=C(O)c1ccccc1/C=N/Nc1ccc(S(=O)(=O)N2CCCC2)cc1[N+](=O)[O-] under RGS16-Gao: 99
Entry for O=c1[nH][nH]c(C(F)(F)F)c1C=Nc1ccccc1 under HSV augment primary fold: 0.91
Entry for O=C(NCc1ccccc1)/C(NC(=O)c1ccccc1)=C(/Sc1ccccn1)c1ccccc1 under HSV augment primary fold: 0.88

Further results.
SMILES	GALR2 ag	RGS16-Gao	HSV augment	HSV augment primary fold	Insulin prom inh	Insulin prom inh cell count	PKD1 inh
CCNc1nc(N2CCCC2)nc(N2CCCC2)n1	·	101	i	0.88	·	·	5
Cc1cc(SCC(=O)NCCC2=CCCCC2)nc2ccccc12	-1.9	120	i	1	·	·	7
CCOC(=O)c1ccccc1NC(=O)CSc1ccccc1	-2.2	104	i	0.96	7	109	-10
COc1ccc(CC(=O)NCc2n[nH]c(=S)n2-c2ccc(F)cc2)cc1	·	98	i	0.81	·	·	-2
CCCCCC1CC(=O)C=C(C)C1C(=O)OC (stereo not given)	·	93	i	0.93	·	·	·
S=c1nc[nH]c2c1[nH]c1ccc(Cl)cc12	·	100	i	0.84	·	·	·
OC1CCN(Cc2cn(Cc3ccccc3)nc2-c2cc3ccccc3o2)CC1	·	101	i	0.89	·	·	-5
Cc1nnc(SCC(=O)NCc2cccs2)n1-c1ccccc1	0.3	126	i	0.9	4	203	-5
O=C(N/N=C/c1cccs1)c1cnccn1	-0.6	101	i	0.95	-14	123	8
O=C(c1cc(-c2ccc(O)cc2)on1)N1CCc2ccccc2C1	-3.0	97	i	1.2	·	·	-5
O=C(NCc1ccc2c(c1)OCO2)c1ccc(CS(=O)(=O)c2cccc(C(F)(F)F)c2)o1	-3.8	105	·	·	·	·	18
CC(C)(CSc1nncn1N)NS(=O)(=O)c1ccc(Cl)cc1	-3.6	99	i	1	77*	57*	-1
CC1c2ccsc2CCN1S(=O)(=O)c1ccccc1 (stereo not given)	·	98	i	1	·	·	·
S=C(Nc1ccccc1)N1CCn2c(nc3ccccc32)C1	·	99	i	0.93	·	·	-11
CCNC(=S)NNC(=O)CSc1nc2ccccc2[nH]1	·	98	i	0.94	·	·	1
S=c1[nH]nc(C2CC2)n1Cc1ccco1	-1.9	107	i	0.96	19	77	-9
CC1(C)NC(=O)N(CCCOc2ccc(Br)cc2Cl)C1=O	-0.7	100	i	0.94	0	152	-4
O=c1cc(-c2ccccc2)nc(SCCOc2ccccc2Cl)[nH]1	·	123	i	0.76	·	·	-6
O=C1CSC(=Nc2ccccc2[N+](=O)[O-])N1	·	104	i	1.1	·	·	-3
O=C(NCCc1csc(-c2cccnc2)n1)c1ccccc1	-1.5	110	i	0.95	·	·	-1
CCCC1(CCC)C(=O)NC(=NCCc2ccc(OC)c(OC)c2)NC1=O	0.4	104	i	1.1	·	·	-15
CCc1ccc(NC(=O)c2cc(Br)ccc2Br)cc1	·	104	i	0.92	·	·	-13
Cc1ccc(S(=O)(=O)c2nc(-c3ccc(F)cc3)oc2SCC(=O)NCC2CCCO2)cc1 (stereo not given)	-1.3	161	i	0.86	19	55	-7
COc1ccc(-c2[nH]ncc2CN2CCC(N3CCSCC3)CC2)c(F)c1	·	203	i	0.93	-9	81	-10
O=C(N/N=C/c1cccc(Cl)c1)c1c(O)c2c([nH]c1=O)CCCC2	·	89	i	1	·	·	·
O=C1C=C(Nc2cccc(Cl)c2)CC(c2ccco2)C1 (stereo not given)	-3.5	175	i	0.8	-37	96	4
Cc1nc2nc(C)c(CCC(=O)N3CCOCC3)c(C)n2n1	-1.4	96	i	1	·	·	-8
CCCN(CC(=O)Nc1cc(Cl)cc(Cl)c1)CC(=O)Nc1ccc(F)c(F)c1F	-1.2	100	i	0.77	10	123	-8
Cc1ccc([N+](=O)[O-])cc1NC(=O)c1ccc(C(C)(C)C)cc1	-1.5	97	i	0.72	·	·	10
COc1ccc(/C=C/c2nnc(NC(=O)CC(C)C)s2)cc1	·	99	i	0.86	·	·	·

Screening data from PubChem.
